Bioassay records: PubChem, Center for Chemical Genomics, University of Michigan
CDC25B-CDK2 inh = human CDC25B-CDK2/CyclinA binding inhibition. HTRF CDC25B-CDK2/CyclinA binding, anti-His/anti-Flag; hits give high values. 0.72% of 94,000 active. z-score (concentration not given with the values). P30305+P24941;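 note: score is relative to mean and SD of negative controls; strong numbers were not always called active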
TAR Tat displ = HIV-1 TAR-Tat binding disruption; 0.6% of 100,000 active; AID 1259389; z-score (test concentration not listed); HIV-1 TAR RNA, Tat peptide displacement FRET; hits give high values;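 note: score is relative to mean and SD of negative controls; some compounds called inactive have numbers as strong as hits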
* hit, by the source's call; x = no result given.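 Rule for the calls: active = z-score from 3 up in half or more of its runs; inactive = the rest.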

SMILES	CDC25B-CDK2 inh	TAR Tat displ
C=CCOc1ccccc1C1CC(=O)Nc2c1c(C)nn2-c1ccc2nnc(C)n2n1 (stereo not drawn)	x	0.97
COc1ccc(C2CC(=O)N3CN(C4CCCCC4)CSC3=C2C#N)c(OC)c1 (stereo not drawn)	0.97	1.6
Cn1c(=O)c2[nH]c(-c3ccncc3)nc2n(C)c1=O	x	1.2
Cc1cccc(OCc2nc(-c3ccc(Cl)cc3)no2)c1	-1.2	x
CCN(CC)CCCNCC(=O)NC1CCOC(C)(C)C1 (stereo not drawn)	-0.75	0.02
COc1ccc(Oc2ccc(C(F)(F)F)cc2N2C(=O)c3nccnc3C2=O)cc1	-1.5	x
CCN1CCN(c2c(S(=O)(=O)c3ccc(C)cc3)cnc3ccc(C)cc23)CC1	-0.16	0.51
FC(F)(F)c1nnc2sc(-c3cccs3)nn12	0.35	-0.34
CC1=C(c2ccc(C)cc2)S(=O)(=O)N=C1Nc1ccc2c(c1)OCO2	-1.1	-0.48
COc1ccc(Cc2nn3c(-c4cccc(Cl)c4)nnc3s2)cc1	0.66	1.2
COc1ccc(Br)cc1C1C=C(C(=O)O)Nc2ncnn21 (stereo not drawn)	x	1.4
CC(C)(C)c1ccc(-c2nc(SCC(=O)Nc3ccccc3)n3[nH]c(=O)cc3n2)cc1	x	-0.93
Cc1ncc(-c2ccc(S(=O)(=O)N3CCN(Cc4ccc5c(c4)OCO5)CC3)cc2)o1	x	1.6
O=c1c2c(-c3ccc(Cl)cc3)csc2ncn1Cc1ccc(F)cc1	0.42	0.74
COc1ccc2c(=O)c(Oc3cc(C)cc(C)c3)c(C(F)(F)F)oc2c1	-0.78	1
COCc1cc(C)nc(SCC(=O)NC2CCCCC2)c1C#N	-1.3	0.69
O=S(=O)(NC1CCCCC1N1CCN(c2ccc(F)cc2)CC1)c1ccccc1 (stereo not drawn)	-2.4	0.79
Cc1ccccc1CSc1nnc(-c2ccncc2)o1	-0.21	0.69
COC(=O)C1=C(C)NC(=O)NC1c1ccc(Br)cc1 (stereo not drawn)	-1.1	x
Cc1cc(S(=O)(=O)O/N=C(\N)c2snnc2C)cc(C)c1F	-0.04	x
N#CC1=C(N)OC2=C(C(=O)CCC2)C12C(=O)N(CC(N)=O)c1ccccc12 (stereo not drawn)	-1.3	x
Cc1ccc(S(=O)(=O)N2CCCc3ccc(NS(=O)(=O)c4ccc(F)cc4F)cc32)cc1	x	2.2
Cn1nc(-c2ccc(Cl)cc2)c2cc(C(=O)NCC3CCCO3)sc21 (stereo not drawn)	-0.81	x
N#Cc1ccc(-c2ccncc2)[nH]c1=O	-1.5	x

Some of these compounds in order of formula weight, lowest first.
SMILES	CDC25B-CDK2 inh	TAR Tat displ
N#Cc1ccc(-c2ccncc2)[nH]c1=O	-1.5	x
Cc1cc(S(=O)(=O)O/N=C(\N)c2snnc2C)cc(C)c1F	-0.04	x
N#CC1=C(N)OC2=C(C(=O)CCC2)C12C(=O)N(CC(N)=O)c1ccccc12 (stereo not drawn)	-1.3	x
O=S(=O)(NC1CCCCC1N1CCN(c2ccc(F)cc2)CC1)c1ccccc1 (stereo not drawn)	-2.4	0.79
Cc1ncc(-c2ccc(S(=O)(=O)N3CCN(Cc4ccc5c(c4)OCO5)CC3)cc2)o1	x	1.6
Cc1ccc(S(=O)(=O)N2CCCc3ccc(NS(=O)(=O)c4ccc(F)cc4F)cc32)cc1	x	2.2

(further entries)
SMILES	CDC25B-CDK2 inh	TAR Tat displ
Cc1cc2nnc(SC(C)C(=O)OC(C)C)n2c2ccccc12 (stereo not drawn)	-1.5	1.4
N#CCCN(Cc1ccco1)S(=O)(=O)c1cccc2nonc12	-0.36	x
Nc1ccc(-c2nc3ccccc3o2)cc1	-1	2
Cc1nc(-c2ccccc2)sc1C(=O)Nc1c(C)nc2c(C)cccn2c1=O	x	0.73
C=CCn1c2ccccc2c2nnc(SCC(=O)Nc3nc(C)c(C(=O)OCC)s3)nc21	0.6	1.9
Cc1nc2n(c(=O)c1CCN1CCC(c3noc4cc(F)ccc34)CC1)CCCC2	x	1.7
O=C(CN1CC(=O)Oc2ccccc21)Nc1ccc2c(c1)OCO2	-0.7	-1.2
O=[N+]([O-])C([N+](=O)[O-])=S(c1ccccc1)c1ccccc1	-1.3	x
O=C(NCCNc1nccc(C(F)(F)F)n1)c1cccs1	4.5	x
O=S(=O)(NCc1ccc(F)cc1)c1ccc(-n2cccn2)cc1	x	-0.31
O=C(CSc1nc2sc3c(c2c(=O)[nH]1)CCCC3)NCCO	-0.26	x
Cc1onc(-c2c(Cl)cccc2Cl)c1NC(=O)N/N=C/c1cccc([N+](=O)[O-])c1	-0.1	x

Entries of single compounds, quoted from the list.
O=S(=O)(NCc1ccc(F)cc1)c1ccc(-n2cccn2)cc1 is listed with CDC25B-CDK2 inh = x; TAR Tat displ = -0.31
Cc1nc(-c2ccccc2)sc1C(=O)Nc1c(C)nc2c(C)cccn2c1=O is listed with CDC25B-CDK2 inh = x; TAR Tat displ = 0.73
O=C(CSc1nc2sc3c(c2c(=O)[nH]1)CCCC3)NCCO is listed with CDC25B-CDK2 inh = -0.26; TAR Tat displ = x

(continued)
SMILES	CDC25B-CDK2 inh	TAR Tat displ
O=C(Nc1nc(-c2ccc(Br)cc2)cs1)c1cccc(-n2cnnc2)n1	x	1.4
COC(=O)CCc1ccc(OCC(O)CNC(C)C)cc1 (stereo not drawn)	x	1.5
CCC(Sc1nnc(CSc2ncccn2)n1-c1ccccc1)C(=O)OC (stereo not drawn)	-0.87	1.6
Cc1cc(C)c(S(=O)(=O)NCCc2csc3nc(-c4ccc(F)cc4)nn23)c(C)c1	x	0.41
O=C(Cn1ncn2nc(-c3cccs3)cc2c1=O)NCc1cccs1	-1.8	-0.44
O=C(C1CCN(S(=O)(=O)c2cccnc2)CC1)N1CCCCC1	-1.2	1.7
N#Cc1cn(CC(=O)N2CCc3ccccc3C2)c2ccccc12	-0.38	-0.16
CC(=O)N1N=C(c2ccc3ccccc3c2)OC1c1cccc(Br)c1 (stereo not drawn)	x	1.4
CCC1(CC)Cc2ccccc2-c2[nH]c(=O)n(CC(C)C)c(=O)c21	-0.56	1.1
O=[N+]([O-])c1ccc(C=Nc2cc(C(F)(F)F)ccc2NCCc2ccccn2)s1	-0.44	x
O=C(c1ccco1)c1cn(CC(=O)N2CCc3ccccc32)c2ccccc12	-0.71	-1.4
COc1cccc(Cn2nc3c4cc(F)ccc4n(Cc4ccc(F)cc4)cc-3c2=O)c1	x	-1.1
C=CCNC(=O)C(=O)NCC(c1ccco1)S(=O)(=O)c1cccs1 (stereo not drawn)	x	1.4
CC1=C(c2ccc(C)c(C)c2)S(=O)(=O)N(Cc2ccc(C(=O)NC(C)C)cc2)C1=O	-1.1	-0.42
COc1cnc(CSc2nnc(C)s2)cc1OCC(=O)Nc1ccc(Br)cc1	x	-0.4
O=C(Nc1nc(-c2ccc(Br)o2)ns1)c1ccccc1F	-0.97	-0.64
CCOc1cc(C2C=C(C(=O)O)Nc3ncnn32)ccc1OC(C)C (stereo not drawn)	-0.75	1.2
Cc1nn(C)c(C)c1CNC(=O)CCCn1c(=O)c2cccn2c2ccc(Br)cc21	x	1.3
CCCCN(Cc1ccco1)S(=O)(=O)c1ccc2c(c1)CCCC(=O)N2	x	-2.2
O=C(Nc1ccccc1)Nc1ccccc1C(=O)NCC1CC1	-1.2	x
COc1ccc2c(c1)c(N1CCCC1=O)c(C(=O)NCCC1=CCCCC1)n2C	x	1.1
O=C(c1ccccc1)c1ccc(C(=O)O)c(C(=O)O)c1	-1.3	-1.4
COc1ccc(-c2cc(=S)sc(N)c2C#N)cc1OC	0.25	x
O=C1C(Cl)=C(Oc2cc(Cl)c(Cl)cc2Cl)C(=O)c2ccccc21	0.25	x
Cc1ccc(-c2n[nH]c(=O)c3c2CCCC3)cc1S(=O)(=O)N(Cc1ccccc1)C(C)C	0.22	-1.4
O=C(O)CCC(=O)Nc1ccc(S(=O)(=O)Nc2nccs2)cc1	-0.9	0.51
NC(=O)CN(c1ccccc1)C1SC(=O)N(Cc2ccccc2)C1=O (stereo not drawn)	-0.65	x
COc1ccc(-c2cc3ncc4c(n3n2)-c2cc(Cl)ccc2OC4)cc1	-0.28	-0.96
CCc1nn(-c2ccccc2)c(N)c1C#N	-0.3	1.1
O=C(c1ccc(OC(F)(F)F)cc1)c1cc2cc([N+](=O)[O-])ccc2o1	0.81	x
CC1=C(c2ccc(F)cc2)S(=O)(=O)N=C1Nc1ccc(C)c(C)c1	x	0.69
Cc1ccc(C2=NN3C(C2)c2ccccc2OC32CCCCC2)o1 (stereo not drawn)	-1.7	x
CC(C)OC(=O)c1c(-c2ccccc2)c(-c2ccccc2)nn(C)c1=O	2.7	0.97
CCc1cc2c(N3CCC(C(=O)NC(C)CCc4ccco4)CC3)ncnc2s1 (stereo not drawn)	x	1
CC1CCN(c2nc(N(C)C)nc(N)c2[N+](=O)[O-])CC1	x	0.7
COc1ccc(-n2nc(C(=O)NC3CC3)c3c4ccccc4n(C)c3c2=O)cc1Cl	-1.9	x

The closing two entries of the part before are carried over, then new ones follow:
SMILES	CDC25B-CDK2 inh	TAR Tat displ
CC1CCN(c2nc(N(C)C)nc(N)c2[N+](=O)[O-])CC1	x	0.7
COc1ccc(-n2nc(C(=O)NC3CC3)c3c4ccccc4n(C)c3c2=O)cc1Cl	-1.9	x
O=C(C1CC1)N1CCc2cc(Br)cc(S(=O)(=O)N3CCN(C4CCCCC4)CC3)c21	0.16	-1.2
O=[N+]([O-])c1sccc1CS(=O)(=O)c1ccccc1	-2.9	x
CCn1c2ccccc2c2nnc(SCC(N)=O)nc21	-0.31	2
O=C(NCC1CCCO1)c1cc2c(s1)-c1ccccc1SC2 (stereo not drawn)	0.58	x
CC(Oc1ccc(Cl)cc1Cl)C(=O)NNC(=S)Nc1ccccc1 (stereo not drawn)	0.76	x
COC(=O)c1ccc(C2Oc3c(OC)cccc3C3CC(c4ccccc4O)=NN32)cc1 (stereo not drawn)	-0.73	-0.45
Cc1nc2nc(N)[nH]c(=O)c2nc1C	1.1	x
CCn1c(=S)ccc2ccccc21	-1.5	-1.3
CCC1CCCCN1CCCNC(=O)C(C)n1nc(C)c2sc3ccccc3c2c1=O (stereo not drawn)	-2.5	1.7
Cc1occc1-c1nnc(SCC(=O)NCc2ccc3c(c2)OCO3)o1	-0.69	2
CCOC(=O)c1noc2ncnc(NC3CCCC3)c12	x	-0.41
CC1(C)Cc2c(c(N3CCCC3)nc3sc4c(NCCN5CCOCC5)ncnc4c23)CO1	0.13	x
O=C(NC(=O)c1ccccc1)Nc1ccc(-c2cnco2)cc1	-2.6	x
CC(C)(C)C(=O)Nc1ccc2nc(SCC(=O)N3CCOCC3)sc2c1	-0.62	-0.13
Cc1cccc(NC(=O)C2c3ccccc3C(=O)N(C3CCCC3)C2c2cccs2)n1 (stereo not drawn)	x	1.4
Clc1cccc(N2CCN(c3c4c(nc5nncn35)CCC4)CC2)c1	-2	0.76
Cn1c(=O)c2c(nc(N3CCN(Cc4ccccc4)CC3)n2CCSc2ncccn2)n(C)c1=O	0.11	x
CN(C)CCCNc1c2c(c(C#N)c3nc4ccccc4n13)CCC2	-1.8	-8.6
CC(Sc1nnc2sc3ccccc3n12)C(=O)O (stereo not drawn)	0.29	1.4
Cc1cc(C)n(Cc2c(C(=O)N3CCCC3)noc2C)n1	x	-0.67
Cc1cc(C)c(-c2ccn(C(=O)c3cc(-c4ccccc4)oc3C)n2)[nH]1	-3	x
CC(C(=O)N1CCCN(c2cc(=O)n(C(C)C)c(=O)n2C(C)C)CC1)N1C(=O)COc2ccccc21 (stereo not drawn)	x	1.2
O=C(c1sc2ccccc2c1Cl)N1CCN(C(=O)C2CCCO2)CC1 (stereo not drawn)	-1.7	x
Cc1nc(-c2ccc(S(=O)(=O)N(C)C3CCCCC3)cc2)co1	x	-0.27
COc1ccc(N2C(=S)N(C)C3CS(=O)(=O)CC32)cc1 (stereo not drawn)	0.16	x
Cc1cc(C2CCCN2C(=O)Cn2cc(Cl)cn2)on1 (stereo not drawn)	x	2.1
CCOc1cc(CNCCSc2nnnn2C)cc(Cl)c1OCC	-0.95	1.3
O=C(CSc1c2c(nc3ccccc13)CCCC2)NC1CCCCC1	-9.6	x
CC1=C(C(=O)OC2CCCC2)C(c2coc3ccccc3c2=O)C2=C(CC(C)(C)CC2=O)N1 (stereo not drawn)	-0.27	0.4
O=C(CSc1ccsc1[N+](=O)[O-])Nc1cc(F)ccc1F	-4.8	4.2
CC(C)OCCCN1CC(O)=C(c2nc3ccccc3[nH]2)C1=N	-2.6	0.88
Cc1cccc(NC(=O)c2cc3ccc4cccnc4c3[nH]2)n1	x	0.78
CC1(C)CC(=O)C2=C(C1)OC(N)=C(C#N)C2c1ccc2c(c1Br)OCO2 (stereo not drawn)	0.09	x
Cc1ccc(Cn2c(=O)c3cccnc3n(Cc3ccc(C#N)cc3)c2=O)cc1	-0.61	x
Cc1nc(SCC(=O)c2ccccc2)c(C#N)c(C)c1Cl	-15	x
CN=C(NO)C(=O)c1ccc(Cl)cc1	-3.1	x
CCC1CC(C)(c2csc(Nc3ccccc3)n2)OC1=O (stereo not drawn)	-2.1	x
CCNc1nc(SCc2ccc([N+](=O)[O-])cc2)nc2nc(N(CC)CC)ncc12	-2.3	x
COc1ccc(C(=O)COC(=O)CN2C(=O)C3CC=CCC3C2=O)cc1 (stereo not drawn)	-0.99	2.7
Cc1ccc(-c2ccc(=O)n(CC(=O)OC(C)C)n2)cc1S(=O)(=O)N1CCCCC1	1.7	1.1
Cc1ccc(C2c3c(oc4ccc(C)cc4c3=O)C(=O)N2CCCN(C)C)cc1 (stereo not drawn)	0.29	-0.32
CCC(C)NC(=O)c1oc2ccc3c(c2c1C)C(=O)CC1(CCCCC1)O3 (stereo not drawn)	-1.1	0.03
